Kir21 inh: Kir2.1 (mouse) channel inhibition; P35561; HEK293-Kir2.1, FluxOR thallium flux fluorescence; hits give low values; B-score at 10 µM; actives 0.85% (n = 310,000); AID 1672;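 active means fluorescence ratio B-score at or below minus 3 SD of library scores, with starting-brightness B-score within 2 SD, cut at about -4.2 in these data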;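 further: channel flux triggered by added potassium and thallium sulfate stimulus; B-score of peak minus minimum fluorescence over baseline after thallium stimulus; more negative B-score means stronger Kir2.1 block with less thallium influx; some compounds called inactive have numbers as strong as hits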
Target sequence (P35561 whole entry, looked up): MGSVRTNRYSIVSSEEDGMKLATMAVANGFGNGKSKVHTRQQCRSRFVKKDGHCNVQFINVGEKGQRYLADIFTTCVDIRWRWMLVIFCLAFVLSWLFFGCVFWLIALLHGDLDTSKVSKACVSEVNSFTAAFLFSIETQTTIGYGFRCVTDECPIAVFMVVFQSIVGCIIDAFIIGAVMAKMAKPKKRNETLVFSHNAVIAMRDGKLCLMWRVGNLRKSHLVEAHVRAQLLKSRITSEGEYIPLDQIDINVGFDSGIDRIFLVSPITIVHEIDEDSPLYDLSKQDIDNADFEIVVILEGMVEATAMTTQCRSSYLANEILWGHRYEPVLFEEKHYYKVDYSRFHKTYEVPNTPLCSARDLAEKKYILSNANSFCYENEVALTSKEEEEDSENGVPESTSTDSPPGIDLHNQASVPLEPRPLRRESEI
The depositor's hits bear a star.

SMILES,Kir21 inh
Cc1ccc(CNC(=O)COC(=O)c2c(C)noc2C)cc1,1.8
Cc1ccc([N+](=O)[O-])cc1NC1OC(CO)C(O)C1O (stereo unspecified),-0.76
COCCN(CCOC)C(=O)N1CCOCC1,1.3
COc1ccc(-n2c(Cn3nnc4ccccc43)nnc2SCC(=O)O)cc1,-0.83
CCc1[nH]nc2c1C(c1cccnc1)C(C#N)=C(N)O2 (stereo unspecified),1.1
O=C(Nc1ccc(S(=O)(=O)NCCc2ccccc2)cc1)c1ccncc1,0
O=C(Cn1nnc(-c2ccccc2F)n1)Nc1ccc(S(=O)(=O)NC2CCCC2)cc1,-1.3
Cc1ccc(C)c(S(=O)(=O)N/N=C2/CCCc3ccccc32)c1,-1.1
CCn1c(C)nc2c(=O)oc3ccccc3c21,0.88
COc1ccc2oc(C(=O)OCC(=O)Nc3cc(S(=O)(=O)N4CCOCC4)ccc3C)c(C)c2c1,0.58
CCCCCc1nc2ccccc2c(=O)n1N,0.66
O=C(N/N=C/C(Cl)=C\c1ccccc1)c1cnccn1,-1.9
CSc1nc(Sc2ccc(Cl)cc2)c2ccccc2n1,-0.08
CCN1CCN(CCCNC(=O)C2CCCN(c3nnc(-n4cccc4)s3)C2)CC1 (stereo unspecified),-0.77
c1ccc(Cn2c(Nn3cnnc3)nc3ccccc32)cc1,0.01
COc1ccc(O)c(CN2CCN(CCCc3ccccc3)C(CCO)C2)c1 (stereo unspecified),1.8
N#Cc1c(NC(=O)CSc2ncn[nH]2)sc2c1CCCCC2,1.2
O=S(=O)(Nc1ccc2c3c(cccc13)CC2)c1ccc(F)cc1,-0.97
O=C(NCC1CCCO1)c1ccc(N2CCCCC2)nc1 (stereo unspecified),2.9
COc1ccc(-n2c(C)nc3c(cnn3-c3ccc(C)c(C)c3)c2=O)cc1,-1.9
CCCC(=O)Nc1ccccc1NC(=O)c1ccc2c(c1)OCO2,0.45
Cc1nc(C)c(N)c(=O)[nH]1,0.01
Cc1ccc(CC(=S)N2CCOCC2)cc1,-0.85
Cc1cccc(Cn2c(NCC(C)O)nc3c2c(=O)n(C)c(=O)n3C)c1 (stereo unspecified),0.86
CCC1(C)Cc2ccccc2-c2nc3n(c(=O)c21)CCCCC3 (stereo unspecified),-0.23
O=C(Nc1ccc(F)cc1)Nc1cccnc1Cl,-0.79
COc1ccc(/C=C/C(=O)c2ccc(OC)cc2OC)c(OC)c1,-0.67
CN(C)CCCN(C(=O)COc1ccccc1)c1nc2ccc(F)cc2s1,-1.1
Cn1ncc2c(=O)n(/N=C/c3ccccc3)cnc21,0.75
NC(=O)C1CCN(CC(O)CSc2ccccc2)CC1 (stereo unspecified),-0.7

The last two compounds of the part before are carried over, then new ones follow:
SMILES,Kir21 inh
Cn1ncc2c(=O)n(/N=C/c3ccccc3)cnc21,0.75
NC(=O)C1CCN(CC(O)CSc2ccccc2)CC1 (stereo unspecified),-0.7
CCn1c(-c2cc(-c3cc(C)ccc3C)nc3ccccc23)n[nH]c1=S,-0.59
CC(C)OC(=O)c1c(NC(=O)c2ccco2)sc2c1CCCC2,-0.83
CCC1CCc2sc(C(=O)N3CCN(c4ccccn4)CC3)cc2C1 (stereo unspecified),-0.07
CC1Oc2ccccc2N(CC(=O)Nc2ccc3c(c2)OCCO3)C1=O (stereo unspecified),0.08
CC(C)(C)NS(=O)(=O)c1ccc(CCC(=O)Nc2ccc3c(c2)OCO3)cc1,-0.65
CC(OC(=O)CNS(=O)(=O)/C=C/c1ccccc1)C(=O)Nc1ccc(S(=O)(=O)N2CCCC2)cc1 (stereo unspecified),-0.11
CCOC(=O)c1ccc(NC(=S)N(CCCN2CCCCCC2)Cc2ccco2)cc1,-2
Cc1onc(-c2ccccc2Cl)c1C(=O)Nc1nc2ccc(S(C)(=O)=O)cc2s1,0.03
O=C(CSc1nnc(-c2ccncc2)n1CCc1ccccc1)N1CCCC1,-0.87
O=C(NCCc1cccnc1)C1CCC(=O)N(Cc2ccc(Cl)cc2)C1 (stereo unspecified),-0.49
O=C(CSc1ccc(-c2ccccn2)nn1)c1ccccc1,0.98
COc1ccc(-c2n[nH]c(=S)o2)c(OC)c1,-1.3
O=C1OCC/C1=C\c1ccc2c(c1)OCO2,-1.8
CCC(C)NC(=O)C(Sc1ccccc1)c1ccccc1 (stereo unspecified),0.04
COc1ccc(OC)c2sc(N3CCN(C(=O)c4ccc5ncsc5c4)CC3)nc12,-1.7
Cc1cc(C)cc(NC(=O)C(NCC2CCCO2)c2ccccc2)c1 (stereo unspecified),-0.67
Cc1ccc(C(=O)NC2CCSC2=O)cc1 (stereo unspecified),1.2
Cc1ccc(S(=O)(=O)CCC(=O)Nc2nc3c(s2)CCCC3)cc1,0.15
COc1ccc(Cn2cc(C(=O)O)c(=O)c3ccccc32)cc1,-3.6
CC1(C)Cc2ccccc2-c2nnc(SCC(=O)Nc3ccc4c(c3)OCO4)n21,2.7
NC(=O)CSCc1ccc(Br)cc1,0.01
C=CCNC(=O)COC(=O)/C=C/c1cccs1,0.36
O=C(NC1c2ccccc2-c2ccccc21)c1ccccc1,2
COc1ccc(-c2ccc(NS(=O)(=O)c3cc([N+](=O)[O-])c(C)c([N+](=O)[O-])c3)cc2)nn1,-0.44
COc1ccc(-c2nc(NC(=O)C3=NN(c4cccc(C)c4)C(=O)CC3)sc2C)cc1,-0.08
Cc1cccc(-n2ncc3c(NCc4ccccn4)ncnc32)c1,-0.17
O=C(Cc1ccc(F)cc1)OCC(=O)c1cc2ccccc2o1,-2.1
CC(=O)N1c2ccc(S(=O)(=O)NC(CC(=O)O)c3ccc(Br)cc3)cc2CC1C (stereo unspecified),-0.05
CCCC(=O)Nc1ccc(NC(=O)c2cccc(OC)c2)nc1,1.1
O=C1CCCc2nc3c(cc21)C(O)Oc1ccccc1-3 (stereo unspecified),-0.15
CCOc1cc(S(=O)(=O)Nc2ccc(Cl)cn2)ccc1Cl,0.64
Cc1ccc2c(c1)C(c1ccccc1)CC(=O)O2 (stereo unspecified),-2.8
Cc1cccc2sc(N(CCCN(C)C)C(=O)CCc3ccccc3)nc12,-3.5
CCOc1ccc(/C=N/NC(N)=S)cc1,-0.41
O=C(COc1ccc(C(=O)NCCc2ccccc2)cc1)Nc1ccccc1,-0.2
Cc1ccc(C)c(OC(C)C(=O)Nc2nccs2)c1 (stereo unspecified),-1.1
COCCCN=C(c1ccco1)n1c(=S)nc(-c2ccco2)n(CCCOC)c1=S,-0.13
O=C(CN1c2ccccc2S(=O)(=O)c2ccccc21)NCc1ccccc1,1.8
O=c1cc(CSc2nnc(C3CC3)n2Cc2ccccc2)nc2sccn12,-0.13
Cn1cc(S(=O)(=O)N2CCOCC2)cc1C(=O)NCc1ccc(Cl)cc1,-1.9
CC(/C=N/NC(=O)NC1CCCCC1)=C\c1ccccc1,0
CCOc1ccc(S(=O)(=O)Nc2ccc(O)c(Sc3ncn[nH]3)c2)cc1,-0.51
CCc1nnc(NS(=O)(=O)c2ccc(NC(=S)NC(=O)c3ccc(Br)cc3)cc2)s1,-0.98
Cc1cc(NC(=O)CSc2ccccn2)cc(NC(=O)CSc2ccccn2)c1,-0.18
CCN(CC)C(=O)CN1C(=O)c2cccc3cccc1c23,-0.06
CCc1nn(C(C)C(=O)NC2CCCCCC2)c(=O)c2cc3occc3n12 (stereo unspecified),0.69
O=C(Nc1nc(-c2ccccc2)cs1)C1CCCN(S(=O)(=O)c2cccc([N+](=O)[O-])c2)C1 (stereo unspecified),-2
C=CCn1c(SCC(=O)Nc2cc(C)cc(C)c2)nnc1-c1cnccn1,-1.2
Cc1onc(-c2c(F)cccc2Cl)c1C(=O)N1CCN(c2ncccn2)CC1,0.49
O=C(N/N=C/c1ccccn1)c1ccc(Br)cc1,-1.5
COc1ccccc1NC(=O)CSc1nnnn1-c1ccc(C)cc1,-0.58
CCN(CC)c1ccc(C2C3CCCCC3(O)CCN2C(=O)c2cccs2)cc1 (stereo unspecified),-0.81
Cc1nc(N2CCN(C)CC2)c2cc(-c3ccccc3)sc2n1,1.1
Cc1cccc(NC(=O)Cn2cnc3c(cnn3-c3ccc(F)cc3)c2=O)c1C,-0.27
COC(=O)C/C=C/[C@@H](C)[C@@H](/C=N/O[C@@H](C)c1cn([C@H](CO)Cc2ccccc2)nn1)NS(=O)(=O)c1ccc(C)cc1,-0.12
Cc1ccc(N2C(=O)CC(C)CC2=O)cc1,-0.05
COc1cccc(NC(=O)Cn2nnc(C(=O)NCc3cccs3)c2N)c1,-1.3
O=C(NNC(=O)c1ccccc1F)c1ccco1,-0.11
CCCCNC(=O)c1ccccc1NC(=O)C1=C(C)OCCS1,-0.62
COc1cccc(CNc2nc(SC)ncc2CO)c1,-0.06

Continued:
SMILES,Kir21 inh
Cc1nnc(SCC(=O)NC23CC4CC(CC(C4)C2)C3)s1,-0.9
CCOC(=O)Cc1csc(NC(=O)c2sc3nc4ccc(C)cc4cc3c2N)n1,0.49
OCCN(Cc1ccccc1)CC1CC=CCC1 (stereo unspecified),1.8
O=C(NNc1nc2cc3c(cc2s1)OCO3)c1ccccc1,-0.47
O=C(CCN1C(=O)/C(=C/c2ccc(F)cc2)SC1=S)Nc1cc([N+](=O)[O-])ccc1O,-0.2
COc1ccc(Oc2ccc(NC(=O)c3ccccc3C)cc2)cc1,-0.87
Clc1cc(NCc2cccs2)ccc1N1CCOCC1,-0.01
O=C(O/N=C1\CCCc2ccccc21)c1cccs1,-2
CC1=NNC(=O)C1Cc1ccccc1 (stereo unspecified),0.69
COC(=O)c1c(C)nn(-c2ccccc2)c1-n1cccc1,0.98
Cc1ccc2c(C(=O)CN3CCSCC3)c(C)[nH]c2c1,-0.49
O=C(Oc1ccc2c3c(c(=O)oc2c1)CCC3)c1ccccc1[N+](=O)[O-],-2.6
COc1cccc(C(=O)C2CCCN(C(=O)c3cccc(C#CC(C)(C)O)c3)C2)c1 (stereo unspecified),-0.87
CC1(C(=O)NC2CCCC2)CCC(=O)N1Cc1ccc2c(c1)OCO2 (stereo unspecified),-0.11
CC(=O)c1cccc(NC(=O)CN2C(=O)COc3ccc(S(=O)(=O)N4CCOCC4)cc32)c1,-0.11
COc1cccc(NCc2nnc(SCC(=O)N(C)C3CCS(=O)(=O)C3)n2C2CCCCC2)c1 (stereo unspecified),-0.68
COCCNC(=O)c1cn(CCOC)c(=O)c2c1c1ccccc1n2C,-0.01
Cc1cccc(CS(=O)(=O)c2ncc(Cl)c(C(=O)NCc3ccc4c(c3)OCO4)n2)c1,0.11
CC(C)OCCCNC(=O)CN1C(=O)/C(=C/c2ccccc2F)Oc2ccccc21,-0.94
O=C(CCn1nnnc1CN1CCOCC1)N1CCC(c2ccccc2F)C1 (stereo unspecified),-0.38
O=C(Cn1nc(C(F)(F)F)c2c1CCC2)NC1CCCCC1,0.41
CC(C)(C)OC(=O)NCCc1nnc(SCC(=O)Nc2cccc(Cl)c2)o1,0
CC(C)CCNC(=O)CN1C(=O)NC(c2ccccc2)(c2ccccc2)C1=O,0.53
COC(CNC(=O)c1cnn2c(C)c(Cc3ccccc3)c(C)nc12)OC,-0.67
COc1ccc(C2CC(c3ccccc3)=NN2C(=O)CSc2ncccn2)cc1 (stereo unspecified),0.2
CCN1C(=O)N(C)[C@@H](c2ccccc2)C(C(C)=O)=C1C,0.52
Cc1ccc(S(=O)(=O)N2CCC(C(=O)OCC(=O)N(C)Cc3ccccc3)CC2)cc1C,-0.9
Cc1cc(NC(=O)CSc2nnnn2-c2ccc(C(C)C)cc2)no1,1.9
Cc1ccc(N2C(SCC(=O)O)=NC(=Nc3cccc(C)c3)C23CCCC3)cc1,-0.67
CCOc1ccc2[nH]c3c(NCCN(C)C)ncnc3c2c1,-1.1
OC1CCCN(Cc2ccc3c(c2)Cc2ccccc2-3)C1 (stereo unspecified),-0.43
O=C(Cn1ncc2c3ccccc3n(Cc3cccc(Cl)c3)c2c1=O)NCc1ccccn1,0.08
CCCCn1c(SCC(=O)Nc2oc(C)c3c(C)n[nH]c(=O)c23)nc2cc(S(N)(=O)=O)ccc21,-0.53
S=C(NCc1ccccc1)Nc1ccncc1,0.04
O=C(CSC(=S)N1CCSCC1)c1ccccc1,0
COc1cccc(C(=O)N[C@@H](CCSC)c2nc3ccccc3[nH]2)c1,-0.68
Cc1cc(C)c(NC(=O)Cn2c(=O)n(-c3ccc(CC(=O)NCC4CCCO4)cc3)c(=O)c3ccccc32)c(C)c1 (stereo unspecified),-0.88
O=C(Nc1cccc2nsnc12)c1ccc(F)cc1,-0.67
CCC(C)NS(=O)(=O)c1ccc(OCC(=O)N2CCCCC2)cc1 (stereo unspecified),1
CCCCOC(=O)Nc1nc2ccccc2s1,-0.14
CCOc1ccc2c(c1)C(=NNC(=O)c1ccncc1)c1cc(OCC)ccc1-2,-1.8
COc1ccc(NC2=NCC(=O)N2c2ccccc2F)c(OC)c1,0.13
CC1CC(C)CN(S(=O)(=O)N2CCCC(C(=O)NCCCN3CCCCC3C)C2)C1 (stereo unspecified),0.4
C/C(=N\NC(=O)c1cc([N+](=O)[O-])cc([N+](=O)[O-])c1)c1ccco1,0.79
COc1ccc(Cl)cc1NC(=S)N1CCN(C(=O)c2ccco2)CC1,-0.38
COc1ccc(-c2ccc(SCC(=O)NCc3ccco3)nn2)cc1,0.21

2 records picked at random from the list so far:
SMILES,Kir21 inh
CCOc1ccc2c(c1)C(=NNC(=O)c1ccncc1)c1cc(OCC)ccc1-2,-1.8
O=C(Nc1cccc2nsnc12)c1ccc(F)cc1,-0.67

Bioassay records as filed in PubChem BioAssay.

Not all compounds are listed, and most or all hits are left out here.
